Assay outcomes from PubChem BioAssay.
Anaer choline gr = inhibitors of anaerobic choline-dependent gram-negative bacterial growth; calls only; AID 1963822; Gram-negative bacterium anaerobic choline minimal medium, absorbance growth; stronger effect = lower value; many inactives read as strong as hits in the columns shown; actives 0.2% (n = 55,000);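 active means growth z-score on choline under -2 at 7 or 20 h with little or no fall on glycerol, limits in tiers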;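 further: stock transfer was 300 nL into about 50 µL; the organism is E. coli; final concentration not given here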
Anaer choline gr early = also measured in Anaer choline gr; calls as there; z-score; measured here: choline growth z-score, timepoint 1;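 score of optical density at 7 h as mean of two plates; lower means less growth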
* hit, by the source's call; & = joins results of further samples.

For Cc1ccc(C)c(S(=O)(=O)N2CCCC2c2nc(-c3ccc(Cl)cc3)no2)c1 (stereo unspecified) the results were Anaer choline gr inactive and Anaer choline gr early -0.08.
`COCc1nnc(C(=O)Nc2ccc(C(=O)NCCCN3CCc4ccccc4C3)cc2)s1` gave Anaer choline gr inactive and Anaer choline gr early 0.34.
Screening CCCCn1c(=O)c2sccc2n2c(CCC(=O)N3CCC(N4CCCCC4)CC3)nnc12 returned Anaer choline gr inactive and Anaer choline gr early -0.32.
For O=C(NCCn1c(CCc2ccccc2)nc2ccccc21)c1cccnc1 the results were Anaer choline gr inactive and Anaer choline gr early 0.07.
Screening CN1CCN(Cc2nc3cc(NC(=O)C4CCCCC4)ccc3n2C)CC1 returned Anaer choline gr inactive and Anaer choline gr early 0.86.
Screening COc1ccc(-c2cc(C(=O)N3CCN(c4ccc(N5CCOCC5)nn4)CC3)[nH]n2)cc1 returned Anaer choline gr inactive and Anaer choline gr early -0.78.
For O=S(=O)(c1cccc(F)c1)N1CCn2cccc2C1c1ccccc1F (stereo unspecified) the results were Anaer choline gr inactive and Anaer choline gr early 1.25.
Screening Cc1cccc(NC(=O)CC(=O)Nc2ccc3nc4n(c(=O)c3c2)CCCCC4)n1 returned Anaer choline gr inactive and Anaer choline gr early 1.
Cc1cccc(NC(=O)N2CCSc3ncccc32)c1C was read as Anaer choline gr inactive and Anaer choline gr early 0.22.
Screening CC1CCN(C(=O)c2ccc3c(Cl)c4c(nc3c2)CCC4)CC1 returned Anaer choline gr inactive and Anaer choline gr early -0.31.
For CCC1CCCCN1S(=O)(=O)c1ccc2c(c1)-c1oncc1CO2 (stereo unspecified) the results were Anaer choline gr inactive and Anaer choline gr early -0.86.
O=C(NC1CCS(=O)(=O)C1)c1cccc(-n2nnc3cccnc32)c1 (stereo unspecified) was read as Anaer choline gr inactive and Anaer choline gr early 0.6.
For CC(=O)N1CCCc2cc(S(=O)(=O)N3CCC(C(=O)NCC4CCCO4)CC3)ccc21 (stereo unspecified) the results were Anaer choline gr inactive and Anaer choline gr early -0.29.
`CCN(CC)CCN(CCC(=O)N1CCNCC1)C(=O)c1ccc(Br)cc1` gave Anaer choline gr inactive and Anaer choline gr early -1.54.
`Cc1ccc(-c2csc(C(N)=O)c2-n2cccc2)cc1` gave Anaer choline gr inactive and Anaer choline gr early 1.08.
Screening Cc1occc1-c1nnc(SC(C)C(=O)N2CCCc3ccccc32)o1 (stereo unspecified) returned Anaer choline gr inactive and Anaer choline gr early -0.19.
`Cc1cccc(CSc2nc3ccncc3n2CC(=O)Nc2ccc(N(C)C)cc2)c1` gave Anaer choline gr inactive and Anaer choline gr early 0.79.
Screening CCOC(=O)c1[nH]c(C)c(S(=O)(=O)Nc2ccc(Cl)cn2)c1C returned Anaer choline gr inactive and Anaer choline gr early 0.53.
Screening Cc1ccc(-n2c(CN3CCN(S(=O)(=O)c4ccc(CC(C)C)cc4)CC3)nc3cccnc32)cc1 returned Anaer choline gr inactive and Anaer choline gr early 0.41.
O=C(O)CCC/C=C\C[C@@H]1[C@@H](/C=C/[C@@H](O)C2CCCCC2)[C@H](O)C[C@@H]1O was read as Anaer choline gr inactive and Anaer choline gr early 0.63.
NS(=O)(=O)c1ccc2nc(NC(=O)c3cccc(N4C(=O)CCC4=O)c3)sc2c1 was read as Anaer choline gr inactive and Anaer choline gr early 0.07.
CCn1c(=O)c(N2CCC(C(=O)NCc3cccc(OC)c3)CC2)nc2cccnc21 was read as Anaer choline gr inactive and Anaer choline gr early 0.12.
O=C(CSc1nc(=O)n(Cc2ccncc2)c2c1CCC2)Nc1ccc2c(c1)OCO2 was read as Anaer choline gr inactive and Anaer choline gr early 0.47.
`O=C1CC(c2nc3ccccc3n2CC(O)COc2ccccc2)CN1Cc1ccccc1` (stereo unspecified) gave Anaer choline gr inactive and Anaer choline gr early -1.31.
`CCCOc1ccc(CNC(=O)C2CCN(c3ncnc4c3oc3ccccc34)CC2)cc1` gave Anaer choline gr inactive and Anaer choline gr early 0.11.
CN(Cc1cc(=O)[nH]c2ccccc12)C(=O)COc1ccccc1 was read as Anaer choline gr inactive and Anaer choline gr early -1.43.
Screening O=C1CSc2ccc(S(=O)(=O)N3CCC(C(=O)N4CCCCC4)CC3)cc2N1 returned Anaer choline gr inactive and Anaer choline gr early -0.86.
Screening Fc1ccc(CSc2nnc([C@@H]3CCCN3)o2)cc1 returned Anaer choline gr inactive and Anaer choline gr early -0.88.
Screening CCS(=O)(=O)N1CCCC1c1cc(C(C)C)on1 (stereo unspecified) returned Anaer choline gr inactive and Anaer choline gr early -0.37.
Cc1cccc(-c2nnc(-c3nc(NC(C)c4ccccc4)c4ccccc4n3)o2)c1 (stereo unspecified) was read as Anaer choline gr inactive and Anaer choline gr early -0.54.
Screening CC(NC(=O)c1ccccc1)c1nc(-c2ccc3c(c2)nnn3C2CCCC2)no1 (stereo unspecified) returned Anaer choline gr inactive and Anaer choline gr early 1.05.
CN(C)C1(CNC(=O)COc2ccccc2Cl)CCCCC1 was read as Anaer choline gr inactive and Anaer choline gr early 0.35.
`Cc1cc2nc(COc3cc(Cl)ccc3NC(=O)C3CC3)cc(=O)n2o1` gave Anaer choline gr inactive and Anaer choline gr early -2.13.
`CCOC(=O)c1nc(Nc2ccc(Cl)cc2)c2c(C)c(C)n(-c3ccccc3)c2n1` gave Anaer choline gr inactive and Anaer choline gr early -1.21.
For Clc1ccc(-c2nc3sccn3c2/C=N/OCc2ccc(Cl)c(Cl)c2)cc1 the results were Anaer choline gr inactive and Anaer choline gr early 0.5.
For Cc1ccc(-c2nc3n(CC(=O)N4CCCC4)c4c(c(=O)n3n2)CCC4)cc1 the results were Anaer choline gr inactive and Anaer choline gr early 0.85.
Cn1c(=O)n(Cc2ccccc2)c(=O)c2c1nc1n2CCS1 was read as Anaer choline gr inactive and Anaer choline gr early -0.75.
`CCCCC#Cc1nc(NC)c2ncn([C@@H]3O[C@H](CO)[C@@H](O)[C@H]3O)c2n1` gave Anaer choline gr inactive and Anaer choline gr early -0.19.
For CCc1nc2nc(C)cc(N3CCN(c4ccc(C)cc4C)CC3)n2n1 the results were Anaer choline gr inactive and Anaer choline gr early -0.71.
For Cc1nn(-c2ccc3nncn3n2)c(C)c1CCC(=O)NCCC(C)C the results were Anaer choline gr inactive and Anaer choline gr early 1.44.
COc1ccc(N2CCCn3c2nc2c3c(=O)n(C)c(=O)n2C)cc1 was read as Anaer choline gr inactive and Anaer choline gr early 0.79.
For Cc1c(C(=O)Nc2cccc(F)c2)nnn1-c1ccc2noc(-c3ccccc3)c2c1 the results were Anaer choline gr inactive and Anaer choline gr early 0.49.
COc1ccc(Cn2c(CCC(=O)Nc3ccc(F)cc3)nc3cccnc32)cc1 was read as Anaer choline gr inactive and Anaer choline gr early 0.46.
`CCCNCc1cc(=O)n2[nH]c(NCc3ccc(C)cc3)nc2n1` gave Anaer choline gr inactive and Anaer choline gr early -0.22.
COc1ccc2c(c1)c1nc(SCC(=O)Nc3cccc(C)c3)n(Cc3ccccc3)c(=O)c1n2C was read as Anaer choline gr inactive and Anaer choline gr early 0.23.
For COc1cccc(CC(=O)Nc2ccc3nc(NC(=O)c4ccccc4)sc3c2)c1 the results were Anaer choline gr inactive and Anaer choline gr early 1.96.
`COc1ccc(NC(=O)c2cccn2-c2cccnc2)cc1OC` gave Anaer choline gr inactive and Anaer choline gr early -0.3.
For COc1ccc(CCNC(=O)c2cccc(NC(=O)N3CCCCc4ccccc43)c2)cc1OC the results were Anaer choline gr inactive and Anaer choline gr early -0.03.
For O=C(CN1C(=O)CCCc2ccccc21)NCCN1CCCCC1 the results were Anaer choline gr inactive and Anaer choline gr early -0.39.
Cc1ccc(Cl)cc1Nc1nncc(=O)[nH]1 was read as Anaer choline gr inactive and Anaer choline gr early -1.45.
Screening Cc1nc(-c2cccc(N3CC(C(=O)NC4CCCC4)CC3=O)c2)no1 (stereo unspecified) returned Anaer choline gr inactive and Anaer choline gr early -0.12.
`O=C(c1ccc2nc3sc4c(c3c(=O)n2c1)CCCC4)N1CCN(c2ccccc2)CC1` gave Anaer choline gr inactive and Anaer choline gr early 1.
For COc1ccc(Cc2nn[nH]n2)cc1 the results were Anaer choline gr inactive and Anaer choline gr early -0.31.
CN1CCN(C(CNC(=O)C2CCCCC2)c2ccc(N(C)C)cc2)CC1 (stereo unspecified) was read as Anaer choline gr inactive and Anaer choline gr early 0.28.
For O=C(c1noc2c1CCCCC2)N1CCCC1 the results were Anaer choline gr inactive and Anaer choline gr early -1.19.
Screening Cc1cc2c(cc1CNC(=O)CSc1nnc(-c3c[nH]c4ccccc34)n1C)OCCCO2 returned Anaer choline gr inactive and Anaer choline gr early -0.33.
`Cc1ccc(-c2noc(C3CCN(C(=O)c4ccc5c(c4)OCO5)CC3)n2)cc1` gave Anaer choline gr inactive and Anaer choline gr early -0.47.
Cn1ccnc1 was read as Anaer choline gr inactive and Anaer choline gr early 0.02.
O=C(Cc1ccccc1)NCc1nc2ccccc2n1Cc1ccc(Cl)cc1 was read as Anaer choline gr inactive and Anaer choline gr early 0.25.
Screening O=C(CSc1nc2nc[nH]c2c(=O)[nH]1)NCC1CCCO1 (stereo unspecified) returned Anaer choline gr inactive and Anaer choline gr early 0.48.
For CN1CCC(N2CCN(S(=O)(=O)c3cc(-c4nc(C(C)(C)C)cs4)cs3)CC2)CC1 the results were Anaer choline gr inactive and Anaer choline gr early -0.18.
`Cc1nn(-c2cc(N(C)C)ncn2)c(C)c1CCC(=O)N1CCCCC1` gave Anaer choline gr inactive and Anaer choline gr early -1.75.
For Cc1ccc2ncc(C(=O)Nc3ccccc3)c(=O)n2c1 the results were Anaer choline gr inactive and Anaer choline gr early 0.66.
Screening Cn1c(N2CCC(C(=O)O)CC2)nc2ccccc21 returned Anaer choline gr inactive and Anaer choline gr early 0.2.
For O=C(NC1COc2ccccc2C1)N1CCOCC1 (stereo unspecified) the results were Anaer choline gr inactive and Anaer choline gr early -0.11.
For Cc1ccccc1OCCCn1c(C2CCCO2)nc2ccccc21 (stereo unspecified) the results were Anaer choline gr inactive and Anaer choline gr early -0.42.
Cc1nn(-c2ccccc2)c2sc(C(=O)Oc3cccc(Cl)c3)cc12 was read as Anaer choline gr inactive and Anaer choline gr early 1.31.
CCOc1ccc(N2C(=O)CSCC2(C(=O)NC2CCCCC2)c2ccc(Cl)cc2)cc1 (stereo unspecified) was read as Anaer choline gr inactive and Anaer choline gr early 1.54.
Cc1ccc(C(=O)C(C)n2nc3n(CC(C)C)c(=O)c4ccc(C(=O)NCC(C)C)cc4n3c2=O)cc1C (stereo unspecified) was read as Anaer choline gr inactive and Anaer choline gr early 2.08.
COc1ccc(-c2nc3cnccn3c2Nc2ccccc2C)cc1 was read as Anaer choline gr inactive and Anaer choline gr early 0.22.
`O=C(CCc1nc2sc3c(c2c(=O)[nH]1)CCCC3)N1CCN(C2CCCCC2)CC1` gave Anaer choline gr inactive and Anaer choline gr early -0.26.
`CN1C2CCC1CC(OC(=O)c1c[nH]c3ccccc13)C2` (stereo unspecified) gave Anaer choline gr inactive and Anaer choline gr early 0.49&0.04&-0.53.
For NS(=O)(=O)c1cc2c(cc1Cl)NCNS2(=O)=O the results were Anaer choline gr inactive and Anaer choline gr early 0.09&-0.84&0.29.
O=C(C1CCN(c2ncnc3c2oc2ccccc23)CC1)N1CCCC1 was read as Anaer choline gr inactive and Anaer choline gr early -0.44.
For Cc1ccc(CNC(=O)c2nnc(-c3ccc(S(=O)(=O)N4CCCC4)cc3)o2)cc1 the results were Anaer choline gr inactive and Anaer choline gr early -0.28.

An excerpt from above in order of length of the SMILES, falling:
For Cc1ccc(CNC(=O)c2nnc(-c3ccc(S(=O)(=O)N4CCCC4)cc3)o2)cc1 the results were Anaer choline gr inactive and Anaer choline gr early -0.28.
CCOc1ccc(N2C(=O)CSCC2(C(=O)NC2CCCCC2)c2ccc(Cl)cc2)cc1 (stereo unspecified) was read as Anaer choline gr inactive and Anaer choline gr early 1.54.
Cc1nn(-c2ccccc2)c2sc(C(=O)Oc3cccc(Cl)c3)cc12 was read as Anaer choline gr inactive and Anaer choline gr early 1.31.
For Cc1ccc2ncc(C(=O)Nc3ccccc3)c(=O)n2c1 the results were Anaer choline gr inactive and Anaer choline gr early 0.66.

Returning to the listing, starting 5 compounds before the break.
`O=C(CCc1nc2sc3c(c2c(=O)[nH]1)CCCC3)N1CCN(C2CCCCC2)CC1` gave Anaer choline gr inactive and Anaer choline gr early -0.26.
`CN1C2CCC1CC(OC(=O)c1c[nH]c3ccccc13)C2` (stereo unspecified) gave Anaer choline gr inactive and Anaer choline gr early 0.49&0.04&-0.53.
For NS(=O)(=O)c1cc2c(cc1Cl)NCNS2(=O)=O the results were Anaer choline gr inactive and Anaer choline gr early 0.09&-0.84&0.29.
O=C(C1CCN(c2ncnc3c2oc2ccccc23)CC1)N1CCCC1 was read as Anaer choline gr inactive and Anaer choline gr early -0.44.
For Cc1ccc(CNC(=O)c2nnc(-c3ccc(S(=O)(=O)N4CCCC4)cc3)o2)cc1 the results were Anaer choline gr inactive and Anaer choline gr early -0.28.
CC(C)CNC(=O)C1CCCN(c2ncc(-c3ccc(F)cc3)cn2)C1 (stereo unspecified) was read as Anaer choline gr inactive and Anaer choline gr early 0.47.
`COc1ccc(OC)c(NC(=O)N2CCN(CC(=O)c3c(C)n(C)c4ccccc34)CC2)c1` gave Anaer choline gr inactive and Anaer choline gr early -0.72.
For CCCCNC(=O)c1ncn2c1C(=O)N(CCC)C(C)(C(=O)NCCC(C)C)C2 (stereo unspecified) the results were Anaer choline gr inactive and Anaer choline gr early -0.43.
Screening Cc1nc(NC(=O)c2cc(C(C)C)n(C3CCS(=O)(=O)C3)n2)sc1C (stereo unspecified) returned Anaer choline gr inactive and Anaer choline gr early -1.73.
Screening O=C(COc1ccccc1-c1nc(-c2ccccc2)no1)NCC1CCCO1 (stereo unspecified) returned Anaer choline gr inactive and Anaer choline gr early -1.38.
`Clc1ccccc1CNCC1CCC(CNCc2ccccc2Cl)CC1` (stereo unspecified) gave Anaer choline gr inactive and Anaer choline gr early -1.24.
For CCn1c(=O)c(=O)n(CC(=O)NCCCOC(C)C)c2cccnc21 the results were Anaer choline gr inactive and Anaer choline gr early 0.92.

An excerpt, so the mix of outcomes need not match the whole.
